# Screening results from PubChem BioAssay.
# RecA intein inh: inhibitors of M. tuberculosis RecA intein splicing; P9WHJ3; cell-free RecA intein splicing, fluorescence; inhibition, %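 (about 9 µM by stock and volumes)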; hit rate 0.75% among 290,000; in the data active = inhibition above about 30%; inconclusive = no clear call, values can overlap the other calls;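 also: 0% = vehicle wells and 100% = reference inhibitor control wells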
# Target sequence (P9WHJ3 whole entry, looked up): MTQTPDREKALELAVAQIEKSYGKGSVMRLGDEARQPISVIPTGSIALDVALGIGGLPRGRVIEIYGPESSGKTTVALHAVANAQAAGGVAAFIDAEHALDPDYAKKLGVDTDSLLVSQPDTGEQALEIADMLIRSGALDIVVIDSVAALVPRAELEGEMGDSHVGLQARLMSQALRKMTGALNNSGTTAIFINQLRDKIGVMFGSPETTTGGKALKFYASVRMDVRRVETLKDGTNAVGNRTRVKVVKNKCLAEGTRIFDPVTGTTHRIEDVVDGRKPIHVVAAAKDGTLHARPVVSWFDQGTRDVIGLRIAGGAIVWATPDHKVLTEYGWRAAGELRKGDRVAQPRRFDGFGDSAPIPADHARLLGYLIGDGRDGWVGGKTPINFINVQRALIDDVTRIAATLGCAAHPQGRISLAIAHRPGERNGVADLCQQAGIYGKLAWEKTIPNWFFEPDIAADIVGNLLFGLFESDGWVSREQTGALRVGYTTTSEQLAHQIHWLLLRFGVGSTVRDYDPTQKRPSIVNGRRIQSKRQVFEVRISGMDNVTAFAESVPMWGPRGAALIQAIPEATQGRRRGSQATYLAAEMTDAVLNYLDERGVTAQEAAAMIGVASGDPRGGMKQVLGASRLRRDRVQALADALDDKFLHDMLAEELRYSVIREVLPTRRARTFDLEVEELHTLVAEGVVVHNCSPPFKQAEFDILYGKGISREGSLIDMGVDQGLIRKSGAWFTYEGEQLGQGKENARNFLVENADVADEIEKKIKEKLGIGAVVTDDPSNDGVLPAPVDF
# Arbovirus inh: antivirals against arbovirus infection. hit rate 0.37% among 200,000. inhibition, % at 10 µM. arbovirus infection cell-based antiviral screen. AID 1251;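 active = inhibition from about 30%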;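 also: bluetongue infection of BSR cells; cell survival read as ATP light after 72 h; 0% = infected wells without compound and 100% = uninfected wells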
# Mtb H37Rv: M. tuberculosis H37Rv growth inhibitors, H37Rv strain (AID 1626); one-dose inhibition, % at 10 µM; IC50 in µM for titrated hits; hit rate 0.95% among 220,000; M. tuberculosis H37Rv growth inhibition; higher % means a stronger effect;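 active = confirmed in a dose series; inconclusive = inhibition above 80% but not taken into the dose series; inactive = below 80% or under 30% at every dose of the series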;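 also: bacteria incubated seven days before Alamar blue readout; 0% = bacteria only wells and 100% = bacteria with antibiotic wells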
# Mtb bLac sens: beta-lactam sensitization of Mtb H37Rv; M. tuberculosis H37Rv growth with meropenem, percent inhibition; hits of this screen are not shown here; inhibition, % at 25 µM; hit rate 0.27% among 330,000; AID 434955;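 active = about 74% or more and at least 40 points above the plate without the antibiotic, then above 30% in a dose series; inconclusive = first-round hits that could not be retested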;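 also: growth measured after seven days incubation then overnight dye step; 0% = bacteria only wells and 100% = bacteria with antibiotic; twin plates without the antibiotic show which effects depend on it; some results filed as inactive read as strong as hits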
# YopH inh: YopH (Yersinia) phosphatase inhibition | fluorescence Ex485/Em525 | inhibition, %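 (about 10 µM by stock and volumes)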 | hit rate 0.16% among 140,000;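 active = inhibition of 50% or more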;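 also: controls were vehicle for no effect and minimum signal wells for full effect; inactives centre near -20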
# Arbovirus inh repeat: further read-out of Arbovirus inh, marked with its call; inhibition, %; measured here: 10K subset replicate screen; many hits read low in the repeat;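 first of two repeat runs on a subset; 0% = infected and 100% = uninfected wells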
# Numbers without * were called inactive; ? = inconclusive; . = no result given.
SMILES,RecA intein inh,Arbovirus inh,Mtb H37Rv,Mtb bLac sens,YopH inh,others
COC(=O)c1cnc(Nc2cccc(C(F)(F)F)c2)c([N+](=O)[O-])c1,-2.5,.,8.8%,-0.7,.,
COCCCNS(=O)(=O)c1ccccc1,1.5,-2.4,1.5%,-3.7,-50.6,
COc1ccccc1C/C(N)=N/OC(=O)c1cccc([N+](=O)[O-])c1C,4.1,-7.6,1.1%,0.9,-46.0,
Cc1cccc(C(=O)NCC(=O)OCC(=O)N2CCCCC2)c1,0.5,1.5,0.7%,-8.6,.,
COc1ccc(-c2nnc(SC(C)C(=O)Nc3cccc(Cl)c3)o2)cc1 (stereo unspecified),10.8,4.5,-6.8%,36.1,-33.0,
CCOc1ccccc1NS(=O)(=O)c1ccc2oc(=O)ccc2c1,-0.8,.,.,0.1,.,
Cc1ccc(NC(=O)CSc2ccc(-c3cccnc3)nn2)cc1Cl,.,1.9,.,86.8,.,
O=c1[nH]c2cc3c(cc2cc1CN(CCCO)C(=S)NCc1ccco1)OCO3,-1.3,0.7,-6.0%,-2.2,.,
COc1ccc(C(=O)Nc2cc3c4c(c2)C(C)C(=O)N4CCC3)c(OC)c1 (stereo unspecified),-1.9,.,.,5.4,.,
Cc1cc(OC(=O)c2ccc(S(=O)(=O)N3CCCC3)cc2)c([N+](=O)[O-])c(=O)[nH]1,-4.6,2.3,-5.8%,3.6,.,
COc1cc(C)c(S(=O)(=O)N2CCOCC2)cc1C(C)C,1.2,-1.2,-6.5%,-0.6,30.6,
CC(=O)c1ccc(S(=O)(=O)NC2CC(=O)N(c3cccc(F)c3)C2)cc1 (stereo unspecified),-2.6,.,.,-0.5,.,
O=C(O)CSc1ncnc2c1oc1ccccc12,-1.8,-2.0,-5.4%,-19.7,-35.4,
O=C(O)Cn1c(-c2cscn2)nc2ccccc21,-0.7,8.7,-0.9%,-3.7,-41.5,
Cc1ccc(Cn2c(CN3CCOCC3)nc3c2c(=O)n(C)c(=O)n3C)cc1,-1.6,-0.1,-5.3%,4.6,23.1,Arbovirus inh repeat=4.2
Nc1ccccc1NC(=O)NC(=O)c1ccccc1,0.9,.,.,-5.3,.,
O=C1CN(C(=O)NCCC(=O)NC2CCCCC2)c2ccccc2N1,0.7,.,.,-6.7,.,
CCN(CC)S(=O)(=O)c1ccc(N2Cc3ccccc3C2=N)cc1,-2.2,8.8,3.4%,-2.4,.,
COc1ccc(CCNC(=O)COc2ncnc3ccccc23)cc1OC,3.3,13.4,-2.5%,-2.6,.,
O=C(O)CC(c1ccc(F)cc1F)N1Cc2ccccc2C1=O (stereo unspecified),-1.4,.,.,4.0,.,
O=C(CCSc1ccccc1)Nc1ccc(S(=O)(=O)Nc2ncccn2)cc1,6.1,-0.3,1.0%,-0.7,.,
CCOC(=O)C(CCCCCCC(NC(C)=O)(C(=O)OCC)C(=O)OCC)(NC(C)=O)C(=O)OCC,-0.1,.,-3.1%,0.4,.,
CC(C)SCCCCOc1ccc2ccccc2c1,8.6,10.2,-0.4%,19.9,-21.6,
CC(C)NS(=O)(=O)c1ccc(OCC(=O)NC2CCCCCC2)cc1,0.5,.,.,-2.7,.,
Cc1[nH]c(=O)[nH]c(=O)c1N(C)C,0.3,-1.4,1.2%,9.5,.,
CCOc1cc(C)c(S(=O)(=O)N2CCCCC2)cc1C,5.0,-2.2,-6.3%,1.2,.,
Cc1ccc(OC(C)C(=O)N=Nc2c(O)[nH]c3ccc([N+](=O)[O-])cc23)cc1 (stereo unspecified),4.7,-4.7,4.4%,4.5,.,
O=C(CN1C(=O)S/C(=C\c2ccccn2)C1=O)Nc1ccccc1,-0.8,.,.,0.8,.,
Cc1ccc(Cl)cc1S(=O)(=O)N1CCC(C(=O)NC2CCN(Cc3ccccc3)CC2)CC1,-1.6,.,.,3.6,.,
CN(C)C(=O)CNc1n[nH]c(=S)[nH]c1=O,1.0,.,8.7%,-7.4,.,
Cc1ccoc1C(=O)Nc1cccc(Oc2ccccc2)c1,13.7,1.4,13.7%,-0.7,-13.7,
CCN(CC(=O)NC(c1ccccc1)c1ccccc1)Cc1nc2ccccc2c(=O)[nH]1,3.1,-11.1,-4.4%,-9.3,-8.3,
O=C(c1ccccc1)N1CCCC(C(=O)N2CCc3ccccc3C2)C1 (stereo unspecified),3.3,2.1,-5.9%,-0.4,-20.0,
CN(C)CCCNc1nc(N)c([N+](=O)[O-])c(NCCO)n1,0.2,.,-12.0%,-2.8,.,
COc1ccc(C(=O)NC(=S)NNC(=O)c2ccc(C)cc2)cc1,1.5,.,.,89.8,.,
O=C1CCCC2=C1C(c1cccc(O)c1)C1=C(N2)c2ccccc2C1=O (stereo unspecified),-3.7,-0.1,3.4%,-0.1,.,
CN1CCN(CCCc2c3c(cc4c2CCC4)CCC3)CC1,-1.8,-22.9,-0.1%,-14.2,-23.2,
Cc1cc2oc(C(=O)NC3CCS(=O)(=O)C3)c(C)c2cc1C (stereo unspecified),-2.1,-6.0,-5.9%,-8.5,-28.8,
CC(NC(=O)c1ccc2ccccc2n1)c1ccccc1 (stereo unspecified),2.5,.,.,3.6,.,
CC(C)n1c(-c2ccccc2F)n[nH]c1=S,-3.2,5.5,2.6%,-3.9,-53.3,
CSc1ccc(NC(=O)Nc2cc(C)ccn2)cc1,-0.5,.,-3.8%,1.0,.,
CCOc1ccc(N(CC(=O)NCc2ccc(F)cc2)C(=O)c2snc(C(N)=O)c2N)cc1,-2.5,.,.,-0.6,.,
O=C(NCc1ccc(F)cc1)c1cc(-c2ccco2)on1,-0.3,6.8,1.9%,?,-32.1,
C=CCn1c(-c2ccccc2OCC)n[nH]c1=S,0.1,0.6,0.3%,-5.2,.,
O=C(c1cnccn1)N(Cc1ccco1)C1(C(=O)NC2CCCCC2)CCCCC1,.,0.2,-8.3%,-9.1,-10.4,
CC(C(=O)NCc1ccccc1)N1CCN(c2ccc(F)cc2)CC1 (stereo unspecified),0.7,.,.,-12.5,.,
N=C1C(c2nc3ccccc3[nH]2)=C(O)CN1NC(=O)COc1cccc(F)c1,-0.8,-5.7,-3.5%,3.0,-13.1,
Cc1cc(C)c(Cn2c3ccccc3c3cnn(CC(=O)NCCN4CCOCC4)c(=O)c32)c(C)c1,5.6,.,.,12.3,.,
Cc1ccc(NC(=O)CN2C(=O)NC3(CCc4ccccc43)C2=O)cc1Cl (stereo unspecified),3.4,-17.4,7.1%,-3.3,1.2,
CC(C)C[C@H](NC(=O)OC(C)(C)C)C(=O)N[C@@H](CO)[C@H](O)[C@@H]1C[C@@H]1C(=O)NC1CCCCC1,0.5,.,.,-7.0,.,
c1ccc(-c2noc(-c3ccno3)n2)nc1,0.7,.,-6.7%,3.4,.,
Cc1nn(Cc2ccccc2Cl)c(C)c1NC(=O)C1C2CCC(O2)C1C(=O)O (stereo unspecified),-1.4,2.6,2.9%,.,-14.5,
COC(=O)[C@H]1Cc2cnoc2C[C@]1(C)C(=O)O,-4.0,8.6,4.0%,-2.1,-33.5,
O=C(c1ccccc1)c1nn(-c2ccc(Cl)cc2)c(=O)cc1C(F)(F)F,25.3,-39.2,56.6%,99.6,-16.4,
COc1ccc(NC(=O)c2cc3ccccc3oc2=O)c(OC)c1,-1.1,.,.,3.6,.,
COc1ccc(CNC(=S)NC(C)CCc2ccccc2)cc1 (stereo unspecified),5.8,22.0,7.1%,4.7,.,
CC1=NN(c2ccccc2)C(=O)C1C(=O)c1ccc([N+](=O)[O-])cc1 (stereo unspecified),5.5,8.3,-13.4%,-0.3,.,
OCCN1CCN(CCCN2c3ccccc3Sc3ccc(C(F)(F)F)cc32)CC1,-0.7,-44.3,76.0%,71.6,-11.1,
Cc1ccc(-n2nnnc2SCC(=O)NC2CCCc3ccccc32)cc1 (stereo unspecified),6.0,-1.2,8.1%,-1.9,-24.1,
O=C(O)c1ccc(/C=N/Nc2ccc(C(F)(F)F)cn2)cc1,-3.1,17.0,22.0%,.,.,
# Further compounds follow.
SMILES,RecA intein inh,Arbovirus inh,Mtb H37Rv,Mtb bLac sens,YopH inh,others
CN(Cc1cn(C)nc1-c1ccccc1F)Cc1nccn1C,-3.7,2.0,-1.2%,2.0,.,
CCc1nc(SCC(=O)Nc2nccs2)c2oc3ccccc3c2n1,1.1,7.9,.,23.2,-15.4,
CC(=O)Nc1ccc(S(=O)(=O)NC2=C(N3CCN(c4ccc(F)cc4)CC3)C(=O)c3ccccc3C2=O)cc1,45.3*,-27.2,.,5.9,10.4,
COc1ccc(S(=O)(=O)N2CCCC(C(=O)NCCC(C)C)C2)cc1 (stereo unspecified),2.1,3.1,0.1%,0.4,.,
C=CCn1c(-c2cc(-c3ccc(C)cc3)nc3ccccc23)n[nH]c1=S,8.8,-7.7,9.0%,30.4,.,
Cc1nc2ccccc2c(=O)n1-c1ccc(F)c(NC(=O)c2cccs2)c1,-6.6,.,.,-6.2,.,
NC(=O)C1CCN(CC(=O)Nc2ccccc2Sc2ccccc2)CC1,3.0,-2.4,0.7%,-0.6,-16.6,
CCCCNC(=O)CSc1nnc(-c2ccco2)n1C,-3.1,10.9,7.3%,-0.6,-10.1,
CN(CC(=O)NCCCN1CCOCC1)S(=O)(=O)c1ccc(Br)cc1,-2.4,0.5,-27.6%,-14.1,-0.7,
Cc1cnnc2ccc3c(no[n+]3[O-])c12,-1.1,6.4,-14.9%,-1.2,10.2,
CCC1(c2ccccc2)NC(=O)N(CC(=O)Nc2ccc(OC)nc2)C1=O (stereo unspecified),-2.8,.,.,-11.1,.,
O=C(NCc1ccncc1)C(=O)Nc1nccs1,4.5,.,-2.3%,-10.6,.,
COc1ccc(N=NC2=C(O)CC(C)(C)CC2=O)cc1,-0.8,-12.0,4.3%,0.5,-1.1,
Fc1cccc(-c2nn[nH]n2)c1,-2.7,6.0,3.1%,-12.0,-26.5,
CN(C(=O)c1ccc(COc2ccccc2Br)o1)c1ccccc1,13.0,4.1,12.7%,3.6,.,
O=C(NCc1ccco1)/C(=C\c1ccco1)NC(=O)c1ccccc1Cl,-1.0,.,.,5.7,.,
CCCCN(C(=O)CSc1n[nH]c(-c2ccc(C)cc2)n1)c1c(N)n(CCCC)c(=O)[nH]c1=O,-1.8,.,.,-16.1,.,
CNS(=O)(=O)c1cc(-c2nnc(Nc3ccc(NC(C)=O)cc3)c3ccccc23)ccc1C,-0.9,.,.,2.4,.,
O=C(Cc1cc(=O)[nH]c(=O)[nH]1)NCc1ccc(Cl)cc1,1.7,3.5,.,3.0,-32.7,
C=CCn1c(N2CCCCCC2)nc2c1c(=O)[nH]c(=O)n2C,-0.6,7.1,-13.2%,-0.2,-38.0,
CCCCOC(=O)Nc1ccc(S(=O)(=O)Nn2cnnc2)cc1,1.1,2.0,-10.2%,-7.6,-0.4,
CCc1cc2cccc(C)c2nc1SCC(=O)N1CCN(C(=O)c2ccco2)CC1,-2.9,-10.9,-0.7%,1.3,-27.8,
CCCN1CCC(=O)N([C@H](CN=[N+]=[N-])Cc2ccccc2)CC1,0.7,.,.,-11.4,.,
Cn1nccc1/C=C(/C#N)S(=O)(=O)c1ccccc1,.,8.4,-7.0%,-4.5,-10.6,
CCCCCC(=O)O/N=C(\C)c1ccn(S(=O)(=O)c2ccccc2)c1,-0.7,.,.,-1.7,.,
COc1ccc(Nc2cc(Sc3ccc(OC)cc3)ncn2)cc1,10.8,.,.,30.2,.,
Cn1nnnc1SCC(=O)N1CCN(S(=O)(=O)c2ccccc2)CC1,-1.2,5.6,4.6%,1.2,.,
Cc1ccccc1CS(=O)(=O)Cc1ccc(C(=O)NC2CCCCC2)o1,2.6,.,.,-3.3,.,

# Gathered by group, the entries above with two or more sulfur atoms
SMILES,RecA intein inh,Arbovirus inh,Mtb H37Rv,Mtb bLac sens,YopH inh,others
O=C(CCSc1ccccc1)Nc1ccc(S(=O)(=O)Nc2ncccn2)cc1,6.1,-0.3,1.0%,-0.7,.,
CCc1nc(SCC(=O)Nc2nccs2)c2oc3ccccc3c2n1,1.1,7.9,.,23.2,-15.4,
Cn1nnnc1SCC(=O)N1CCN(S(=O)(=O)c2ccccc2)CC1,-1.2,5.6,4.6%,1.2,.,

# Ordered by SMILES length (smallest number first): some entries from above
SMILES,RecA intein inh,Arbovirus inh,Mtb H37Rv,Mtb bLac sens,YopH inh,others
Cn1nccc1/C=C(/C#N)S(=O)(=O)c1ccccc1,.,8.4,-7.0%,-4.5,-10.6,
C=CCn1c(N2CCCCCC2)nc2c1c(=O)[nH]c(=O)n2C,-0.6,7.1,-13.2%,-0.2,-38.0,
Cn1nnnc1SCC(=O)N1CCN(S(=O)(=O)c2ccccc2)CC1,-1.2,5.6,4.6%,1.2,.,
CNS(=O)(=O)c1cc(-c2nnc(Nc3ccc(NC(C)=O)cc3)c3ccccc23)ccc1C,-0.9,.,.,2.4,.,
CCCCN(C(=O)CSc1n[nH]c(-c2ccc(C)cc2)n1)c1c(N)n(CCCC)c(=O)[nH]c1=O,-1.8,.,.,-16.1,.,

# Not all compounds are listed, so the mix of outcomes need not match the whole.
